GIV-Gai inh: inhibitors of GIV peptide binding to Galpha-i3, primary screen, biochemical, fluorescence polarization, FITC-GIV GBA peptide, rat Galphai3. Guanine nucleotide-binding protein G(i) subunit alpha-3 (Rattus norvegicus), P08753. 90 min; active compounds read low; scaled: aluminum fluoride 0%, vehicle 100%. percent of control (FP), % (concentration not given with the values). 210,000 tested, 0.42% active. AID 1224905, 2016;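 active = replicate mean at 85% of control or lower, very high polarization wells dropped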;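 also: wells of about 15 µL received 100 nL stock; the first replicate is given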
Target sequence (P08753 whole entry, looked up): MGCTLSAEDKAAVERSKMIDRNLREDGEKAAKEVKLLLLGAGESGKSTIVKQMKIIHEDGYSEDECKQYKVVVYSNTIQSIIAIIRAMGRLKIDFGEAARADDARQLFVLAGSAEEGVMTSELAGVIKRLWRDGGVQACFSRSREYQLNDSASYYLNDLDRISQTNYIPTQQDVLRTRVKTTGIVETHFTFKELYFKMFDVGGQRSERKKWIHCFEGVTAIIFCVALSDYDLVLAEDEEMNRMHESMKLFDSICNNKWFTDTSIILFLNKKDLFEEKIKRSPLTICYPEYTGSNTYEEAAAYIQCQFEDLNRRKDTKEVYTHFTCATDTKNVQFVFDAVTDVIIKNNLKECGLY
Sa growth 42C: S. aureus growth inhibition at 42 and 30 °C, primary screen, LtaS inhibitor project, RN4220, two temperatures | OD600, 20 h, 42 °C; active compounds read low | relative growth, % (no concentration beside the values) | 170,000 tested, 0.53% active | AID 720641, 2013;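 active = growth at 42 °C up to 50% and 20 or more points under that at 30 °C, or under 10% at both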;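 also: 300 nL library stock went into each well; scaled to the means of positive and negative controls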
HCMV NEC inh: inhibitors of HCMV UL50-UL53 interaction, biochemical, HTRF | normalized percent inhibition | AID 1918969, 2023 | inhibition, % (concentration not given with the values) | 190,000 tested, 0.15% active;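 active = both replicates at 50% or more, plus weaker picks with an unusually low signal ratio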;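 also: stock transfer was 100 nL into about 20 µL; 0% = negative control wells and 100% = wells with untagged competitor protein; inactives centre near -12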
Sa growth 42C second temp: also measured in Sa growth 42C; calls as there; relative growth, %; measured here: growth at 30 °C;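 optical density after 20 h as mean of two plates; 100% = untreated growth and lower means inhibition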
* = called active by the depositor; & = joins results of further samples.

`CCCSCCCNC(=O)C1CCCN(C(=O)c2cnn(-c3ccccc3)c2-n2cccc2)C1` (stereo not drawn) gave GIV-Gai inh 104, Sa growth 42C 95, HCMV NEC inh -30 and Sa growth 42C second temp 84.
`CS(=O)(=O)c1ccc(-c2csc(-c3ccc4c(c3)OCCO4)n2)cc1` gave GIV-Gai inh 96, Sa growth 42C 108, HCMV NEC inh -7 and Sa growth 42C second temp 72.
For O=C(NCC1COc2ccccc2O1)c1cc2ccccc2o1 (stereo not drawn) the results were GIV-Gai inh 99, Sa growth 42C 98 and Sa growth 42C second temp 83.
For CC(C)(C)/C=C(\C#N)C(C)(C)C the results were GIV-Gai inh 112, Sa growth 42C 110, HCMV NEC inh -15 and Sa growth 42C second temp 98.
For COc1ccc(/C=C/C(=O)C2(O)CCCCC2)cc1OC the results were Sa growth 42C 78, HCMV NEC inh -1 and Sa growth 42C second temp 72.
Cc1cn2cc(-c3cccc(Cl)c3)nc2s1 was read as GIV-Gai inh 105, Sa growth 42C 104, HCMV NEC inh -15 and Sa growth 42C second temp 63.
CCN(CC(=O)Nc1ccccc1C(F)(F)F)CC(=O)NC1CC1 was read as Sa growth 42C 96, HCMV NEC inh -15 and Sa growth 42C second temp 97.
`Cc1ccc(S(=O)Cc2nc(-c3ccc(C(=O)NCC4CCCO4)cc3)oc2C)cc1` (stereo not drawn) gave GIV-Gai inh 104 and HCMV NEC inh -2.
`CCCCCn1c(CO)nc2ccccc21` gave Sa growth 42C 114, HCMV NEC inh -5 and Sa growth 42C second temp 107.
CCN1CCCC1CNC(=O)c1cc2c(=O)n(C)c3ccccc3c2n1C (stereo not drawn) was read as GIV-Gai inh 103, Sa growth 42C 119 and Sa growth 42C second temp 86.
For COC(=O)c1ccccc1S(=O)(=O)N1CCC(C(=O)OCC(=O)NC2CCCCC2C)CC1 (stereo not drawn) the results were Sa growth 42C 95, HCMV NEC inh -7 and Sa growth 42C second temp 104.
`Clc1ccc(CNc2cc(-c3ccccc3)ncn2)cc1` gave GIV-Gai inh 100 and HCMV NEC inh -7.
Screening COc1nc(Nc2ccccc2)nc(OCC(F)(F)F)n1 returned Sa growth 42C 87, HCMV NEC inh 6 and Sa growth 42C second temp 100.
Screening Cc1ccc(C(=O)Nc2cccc(C(=O)OCc3cc(=O)n4c5c(sc4n3)CCCC5)c2)cc1 returned GIV-Gai inh 98, Sa growth 42C 123 and Sa growth 42C second temp 89.
For Cc1[nH]c(C(=O)N2CCC(CC(=O)NCc3ccccc3Cl)CC2)c(C)c1C(=O)OC(C)C the results were GIV-Gai inh 103 and HCMV NEC inh -11.
`c1cc2c(cc1C1CCCCC1)c1c3n2CCCNC3CCC1` (stereo not drawn) gave GIV-Gai inh 98, Sa growth 42C -0.8* and Sa growth 42C second temp -0.8*.
Screening O=C(Nc1ccc(Cn2cnc(-c3nc(-c4ccccc4)no3)c2)cc1)c1ccc(F)cc1 returned GIV-Gai inh 103 and HCMV NEC inh -7.
For CCCS(=O)(=O)N1CCCN(c2nc3cc(Cl)ccc3n3cccc23)CC1 the results were GIV-Gai inh 104 and HCMV NEC inh -31.
`Cc1ccc(-n2cnc3c2C(=O)c2ccccc2C3=O)cc1` gave Sa growth 42C 105, HCMV NEC inh -53 and Sa growth 42C second temp 83.
`COC(=O)c1ccc(Nc2ccccc2)cc1` gave Sa growth 42C 84, HCMV NEC inh -6 and Sa growth 42C second temp 65.
CC1Cc2ccccc2N1C(=O)CCn1c(=O)oc2ccccc21 (stereo not drawn) was read as GIV-Gai inh 103, Sa growth 42C 110 and Sa growth 42C second temp 76.
COc1ccc(OC)c(NC(=O)c2nnn(CCc3ccccc3)c2N)c1 was read as GIV-Gai inh 100, Sa growth 42C 119, HCMV NEC inh -1 and Sa growth 42C second temp 100.
Screening O=C(NCc1ccc(F)cc1)c1nn2c(C(F)(F)F)cc(-c3ccco3)nc2c1Cl returned GIV-Gai inh 103 and HCMV NEC inh -23.
`CC(C)Cn1c(=O)c2ccc(C(=O)NC(C)C)cc2n2c(SCC(=O)NC(C)(C)C)nnc12` gave GIV-Gai inh 107 and HCMV NEC inh -6.
For CC1(C)NC(=O)N(CCC(=O)O)C1=O the results were GIV-Gai inh 102, Sa growth 42C 85, HCMV NEC inh 10 and Sa growth 42C second temp 89.
For C=CCn1c(SCC(=O)N2CCCC2)nc2cc(C(=O)NCC3CCCO3)ccc2c1=O (stereo not drawn) the results were GIV-Gai inh 105, Sa growth 42C 119 and Sa growth 42C second temp 87.
Cc1c(CNCCc2ccc(S(N)(=O)=O)cc2)c(C(=O)O)c(C)n1Cc1ccccc1F was read as GIV-Gai inh 99 and HCMV NEC inh -31.
COC(=O)c1ccc(Cn2nnc3c(=O)[nH]c(C4CCCN(S(=O)(=O)c5ccccc5Cl)C4)nc32)cc1 (stereo not drawn) was read as GIV-Gai inh 102, Sa growth 42C 107, HCMV NEC inh -10 and Sa growth 42C second temp 94.
For O=C(Nc1ccccc1I)C1CCCO1 (stereo not drawn) the results were GIV-Gai inh 108, Sa growth 42C 103, HCMV NEC inh 1 and Sa growth 42C second temp 108.
For CC(C)NCC(O)COc1ccc(CC(N)=O)cc1 (stereo not drawn) the results were GIV-Gai inh 103&101, Sa growth 42C 90&97, HCMV NEC inh -36&-37&2&-51&-18 and Sa growth 42C second temp 89&92.
`Cc1cc(C)c(S(=O)(=O)Nc2ncn[nH]2)cc1C` gave GIV-Gai inh 101, Sa growth 42C 103 and Sa growth 42C second temp 99.
Screening Cc1ccnc2nc(C(=O)Nc3ccc(N4CCOCC4)cc3)nn12 returned Sa growth 42C 85, HCMV NEC inh -28 and Sa growth 42C second temp 94.
Screening O=C(COCc1cc(-c2ccc3c(c2)OCO3)on1)N1CCN(c2ccc(F)cc2)CC1 returned GIV-Gai inh 103, Sa growth 42C 96, HCMV NEC inh 3 and Sa growth 42C second temp 93.
COc1cccc(NS(=O)(=O)c2ccc3c(c2)NC(=O)CCS3)c1 was read as GIV-Gai inh 102 and HCMV NEC inh -10.
Screening CCNC(=O)c1cnc2c(-c3ccccc3)c(C)nn2c1C returned GIV-Gai inh 102, Sa growth 42C 113 and Sa growth 42C second temp 92.
For Cc1ccc2c(c1)C(c1ccccc1)CC(C)N2C(=O)c1ccccc1F (stereo not drawn) the results were GIV-Gai inh 103, Sa growth 42C 123 and Sa growth 42C second temp 103.
`CN1CCN(Cc2cn[nH]c2-c2ccccc2)CC1` gave GIV-Gai inh 104, Sa growth 42C 98&92, HCMV NEC inh 8&-10 and Sa growth 42C second temp 99&90.
For CC(C)c1cc(=O)oc2cc(O)ccc12 the results were Sa growth 42C 116, HCMV NEC inh -8 and Sa growth 42C second temp 80.
For COC(=O)CCc1c(C)[nH]n(-c2nc(-c3ccc(F)cc3)cs2)c1=O the results were GIV-Gai inh 100 and HCMV NEC inh -8.
Clc1cccc(Oc2ncnc3c2oc2ccccc23)c1 was read as GIV-Gai inh 96, Sa growth 42C 92, HCMV NEC inh 3 and Sa growth 42C second temp 97.
`CC(=O)c1cccc(NC(=O)C2CCN(c3ncnc4c3nc3n4CCCCC3)CC2)c1` gave GIV-Gai inh 104, Sa growth 42C 95 and Sa growth 42C second temp 86.
`O=C(CN1CCN(S(=O)(=O)c2ccccc2)CC1)NC(=O)NC1CCCCC1` gave Sa growth 42C 84, HCMV NEC inh 8 and Sa growth 42C second temp 96.
Screening NC(=O)CSc1nnc(NC(=O)c2cccs2)s1 returned GIV-Gai inh 106, Sa growth 42C 113, HCMV NEC inh -20 and Sa growth 42C second temp 85.
Screening O=C(c1ccc(OC(F)F)cc1)N1CCN(c2ccccc2)CC1 returned Sa growth 42C 106, HCMV NEC inh 11 and Sa growth 42C second temp 94.
For COCCNC(=O)c1cc(=O)n(C)c2c1c(=O)n(C)c(=O)n2C the results were GIV-Gai inh 100 and HCMV NEC inh -13.
Screening Cc1ccc(C)c(N2CCN(C(=O)C(C)n3c(C)c4cnn(-c5ccccc5)c(=O)c4c3C)CC2)c1 (stereo not drawn) returned GIV-Gai inh 109, Sa growth 42C 110, HCMV NEC inh -7 and Sa growth 42C second temp 89.
`CCOc1ccc2c(c1)sc(=NC(=O)c1ccc(S(=O)(=O)N3CCCCC3C)cc1)n2CC` (stereo not drawn) gave GIV-Gai inh 101, Sa growth 42C 85 and Sa growth 42C second temp 95.
For CCc1ccc(CCC(=O)Nc2cccc(NC(=O)CCc3ccc(CC)o3)c2)o1 the results were GIV-Gai inh 106, Sa growth 42C 99, HCMV NEC inh 0 and Sa growth 42C second temp 100.
Screening CC(=O)Nc1ccc(C(=O)CSc2nnnn2C(C)C)cc1 returned GIV-Gai inh 105, Sa growth 42C 102, HCMV NEC inh 0 and Sa growth 42C second temp 89.
Screening CCCCCn1c(SCCC(=O)O)nc2c1c(=O)[nH]c(=O)n2C returned GIV-Gai inh 106 and HCMV NEC inh -16.
For CC(=O)N1C(c2ccccc2)CC(=O)C(c2ccccc2)C1c1ccccc1 (stereo not drawn) the results were Sa growth 42C 87, HCMV NEC inh -9 and Sa growth 42C second temp 84.
`COc1ccc(-c2cn3c(n2)sc2cc(C(=O)NCc4cccc(F)c4)ccc23)cc1` gave GIV-Gai inh 105, Sa growth 42C 116 and Sa growth 42C second temp 91.
Screening Cc1nccnc1-c1ccnn1C(=O)Nc1cc(Cl)cc(Cl)c1 returned GIV-Gai inh 99, Sa growth 42C 102, HCMV NEC inh -1 and Sa growth 42C second temp 56.
Screening CCc1ccc(NC(=O)COc2ncnc3c2cnn3-c2ccccc2)cc1 returned Sa growth 42C 99, HCMV NEC inh -12 and Sa growth 42C second temp 94.
For CC1=C(C(=O)OCCOc2ccccc2)C(c2ccc(OCc3ccccc3)cc2)NC(=O)N1 (stereo not drawn) the results were GIV-Gai inh 102 and HCMV NEC inh -9.
`Cc1ccc(N2C(=O)N(Cc3cc(=O)n4ccccc4n3)c3ccccc3S2(=O)=O)cc1Cl` gave GIV-Gai inh 104, Sa growth 42C 103 and Sa growth 42C second temp 95.
Cc1cccc(NC(=O)CSc2nc(C)cc(C)c2C(=O)Nc2ccc(Cl)cc2)c1 was read as GIV-Gai inh 102, Sa growth 42C 116, HCMV NEC inh -2 and Sa growth 42C second temp 103.
For COc1ccc(NC(=O)C2Nc3cc(F)ccc3S(=O)(=O)N2)cc1Cl (stereo not drawn) the results were GIV-Gai inh 101 and HCMV NEC inh -14.
Cc1cc(C)nc(/N=C2\NC(=O)CC(C(=O)O)N2c2ccc(Oc3ccccc3)cc2)n1 (stereo not drawn) was read as GIV-Gai inh 97, Sa growth 42C 98, HCMV NEC inh -37 and Sa growth 42C second temp 77.
Screening CCc1nn(CC(=O)NCc2ccc(OC)cc2OC)c(=O)c2cc3c(OC)cccc3n12 returned GIV-Gai inh 98, Sa growth 42C 106, HCMV NEC inh -13 and Sa growth 42C second temp 85.

Entries listed so far that contain a tert-butyl group, in the order listed:
For CC(C)(C)/C=C(\C#N)C(C)(C)C the results were GIV-Gai inh 112, Sa growth 42C 110, HCMV NEC inh -15 and Sa growth 42C second temp 98.
`CC(C)Cn1c(=O)c2ccc(C(=O)NC(C)C)cc2n2c(SCC(=O)NC(C)(C)C)nnc12` gave GIV-Gai inh 107 and HCMV NEC inh -6.

Returning to the listing, repeating the four entries before the break.
Cc1cccc(NC(=O)CSc2nc(C)cc(C)c2C(=O)Nc2ccc(Cl)cc2)c1 was read as GIV-Gai inh 102, Sa growth 42C 116, HCMV NEC inh -2 and Sa growth 42C second temp 103.
For COc1ccc(NC(=O)C2Nc3cc(F)ccc3S(=O)(=O)N2)cc1Cl (stereo not drawn) the results were GIV-Gai inh 101 and HCMV NEC inh -14.
Cc1cc(C)nc(/N=C2\NC(=O)CC(C(=O)O)N2c2ccc(Oc3ccccc3)cc2)n1 (stereo not drawn) was read as GIV-Gai inh 97, Sa growth 42C 98, HCMV NEC inh -37 and Sa growth 42C second temp 77.
Screening CCc1nn(CC(=O)NCc2ccc(OC)cc2OC)c(=O)c2cc3c(OC)cccc3n12 returned GIV-Gai inh 98, Sa growth 42C 106, HCMV NEC inh -13 and Sa growth 42C second temp 85.
O=C(O)c1ccccc1Nc1ccc(SC(F)F)cc1 was read as Sa growth 42C 115, HCMV NEC inh -9 and Sa growth 42C second temp 53.
CC1CCN(c2nnc(N)s2)CC1 was read as GIV-Gai inh 103, Sa growth 42C 121 and Sa growth 42C second temp 87.
`Cc1cc(C)cc(N(C)S(=O)(=O)c2nnc(NC(=O)COc3ccc(Cl)cc3)s2)c1` gave GIV-Gai inh 108, Sa growth 42C 105, HCMV NEC inh -22 and Sa growth 42C second temp 93.
`O=C1Nc2ccccc2/C1=C\c1c[nH]c2ccccc12` gave GIV-Gai inh 109, Sa growth 42C 43, HCMV NEC inh -18 and Sa growth 42C second temp 36.
`c1ccc(Cc2noc(-c3ccccc3)n2)cc1` gave GIV-Gai inh 95, Sa growth 42C 84, HCMV NEC inh -9 and Sa growth 42C second temp 87.
Screening CC1CCN(c2ccc(NC(=O)CCC(=O)O)cc2)CC1 returned GIV-Gai inh 104, Sa growth 42C 84 and Sa growth 42C second temp 93.

Bioassay records (PubChem BioAssay)
